Mtb hypoxia rep: inhibitors of hypoxia-regulated fluorescent reporter in Mycobacterium tuberculosis | M. tuberculosis hypoxia-regulated fluorescent reporter, fluorescence | fluorescence inhibition, % (concentration not given with the values) | 300,000 compounds, 0.1% hits | AID 1159583;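 active means 35 to 45% if threefold the growth effect, above 45% if 1.5-fold the growth effect; inactive means the rest, general growth blockers included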;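 further: wells of about 50 µL received 100 nL stock; 0% = vehicle wells and 100% = reference inhibitor wells; whole bacteria with a GFP reporter of the hypoxia response; strong numbers were not always called active; many hits fall short of the cut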
BJeLR viability: kills HRASV12-expressing BJeLR cells | inhibition, % (test concentration not listed) | 300,000 compounds, 0.17% hits | BJeLR (HRASV12) viability, CellTiter-Glo ATP luminescence, 48 h; reference of the scale not given here;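 active means replicate mean above 50%; inconclusive means above 50% but judged a plate artefact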;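 further: 50 nL library stock added to about 25 µL; numbers are from one replicate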
PrP UTR inh: inhibition of PrP 5' UTR reporter expression; cell-based PrP 5' UTR mRNA reporter, plate reader; inhibition, % (no concentration beside the values); 340,000 compounds, 0.35% hits; AID 488862;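 active means every replicate at 50% or more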;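 further: 0 = median of the neutral control wells; tested in H4 reporter cells; numbers are from one replicate; inactives centre near -14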
ugtP null kill: growth inhibition of S. aureus ugtP deletion strain; S. aureus RN4220 ugtP deletion, OD600 growth, 16 h; some inactives read as strong as hits; 330,000 compounds, 0.54% hits; AID 1259309; growth inhibition, % (concentration not given with the values);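 active means z-score under -3 and OD600 up to 0.15 on both plates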;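 further: plate controls were untreated wells for no effect and antibiotic for full effect; wells of about 80 µL received 100 nL stock; the first replicate is given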
Bead autofluor: compound fluorescence in toxin protease inhibitor counterscreen | fluorescence intensity (no concentration beside the values) | compound autofluorescence counterscreen, microsphere flow cytometry; hits give high values | 360,000 compounds, 3.1% hits;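 active means at least 3 SD above the mean of all compounds, about 16000 in these data; inconclusive means too few beads counted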;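 further: 100 nL of 1 mM stock went into each well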
Sa RN4220 lethal: kills Staphylococcus aureus RN4220 | S. aureus RN4220 growth, OD600, 16 h | inhibition, % (no concentration beside the values) | 330,000 compounds, 0.33% hits | AID 1259311;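 active means z-score of -3 or lower and OD600 up to 0.18 on both plates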;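 further: plate controls were untreated cells for no effect and reference antibiotic for full effect; stock transfer was 100 nL into about 80 µL; one replicate is shown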
Mtb hypoxia rep growth: also measured in Mtb hypoxia rep; calls as there; growth inhibition, %; measured here: M. tuberculosis growth (absorbance);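 0% = vehicle and 100% = reference antibiotic; read after six days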
Starred values were filed as active, the others as inactive; u = inconclusive; x = not tested or not shown. Compounds were not picked by outcome; overall some 4.1% were active at least once.

SMILES	Mtb hypoxia rep	Mtb hypoxia rep growth	BJeLR viability	PrP UTR inh	ugtP null kill	Bead autofluor	Sa RN4220 lethal
COc1ccc(NC(=O)NC2(C(=O)N3CCCCC3)CCCCC2)cc1	-6	-9	4	-18	14	3931	1.4
O=C(O)C1Cc2ccccc2CN1C(=O)COc1ccc(Cl)cc1 (configuration not stated)	10	10	0	-18	-6	2732	6.2
CCCCCc1cc(=O)oc2c(C(CCN3CCCC(C)C3)c3ccc(OC)cc3)c(OC)cc(OC)c12 (configuration not stated)	x	x	10	-7	x	4187	x
CC1CCc2nn(CC(=O)NCCN3CCCCC3C)cc2C1 (configuration not stated)	x	x	-5	-52	-6	8585	1.0
O=C(N/N=C/c1ccncc1)c1ccc2c(c1)OCO2	x	x	4	-11	x	4523	x
CC(C)(C)c1ccc(/C=C(\C#N)C(=O)NCCN2CCOCC2)cc1	9	6	-5	1	5	4444	3.7
O=C(COc1ccccc1)Nc1cc2c3c(c1)CC(=O)N3CCC2	5	7	12	-16	0	x	2.8
COc1cc(OC)cc(C(=O)NNC(=O)c2ccc3ccccc3n2)c1	1	-1	x	-30	-3	4887	-0.6
CCCc1nnc(SCC(=O)Nc2ccc(OC)cc2)n1N	15	4	1	-17	1	14019	4.0
O=C(c1ccncc1)N1CCN(c2ccc(F)cc2)CC1	12	4	0	-5	4	2884	-0.2
O=C(c1ccc(Cl)c(S(=O)(=O)N2CCOCC2)c1)N1CCCC1	16	-2	8	-12	0	5242	3.4
c1ccc(-c2csc3ncn4nnnc4c23)cc1	3	6	-14	-12	-2	3461	4.5
CCCCc1c(C)[nH]c2nc3ccccc3n2c1=O	-4	-4	-8	-23	7	3839	3.5
CCN1CCN(c2cc3c(nn2)Oc2ccccc2N3C)CC1	9	4	-13	-62	2	2417	1.9
CC[C@]12c3[nH]c4ccc(OC)cc4c3CCN1C(=O)C(CC(=O)NCCCOC)C[C@@H]2C(=O)N1CCN(C(=O)C2CC2)CC1 (some centres not stated)	-6	1	x	-8	-4	3579	1.4
O=C(CNS(=O)(=O)c1cccc(Br)c1)NCCCc1ccccc1	10	2	-8	-13	17	3844	1.1
O=C(CCN1C(=O)c2ccccc2C1=O)N1CCN(C2c3ccccc3-c3ccccc32)CC1	9	12	1	-41	-18	4170	4.3
CCC(=NOC(=O)c1ccc(OC(C)C)cc1)c1ccc(C)cc1	3	5	x	x	29	x	-2.1
Cc1cc(Br)ccc1NC(=O)CN(C)C(=O)CCSc1ccc(F)cc1	-2	-4	-15	12	3	u	-1.2
Cc1cc2ccccn2c1C(=O)c1ccccc1F	3	-2	2	-28	13	5236	22
CC1(C)NC(=O)N(CCOc2ccc([N+](=O)[O-])cc2)C1=O	16	7	-5	-17	2	4106	8.1
ON=C(Cc1cscn1)c1ccc(O)cc1O	8	7	x	x	-2	x	3.6
CC(=O)c1cccc(NC(=O)N2CCCC2C(=O)NCCC(C)C)c1 (configuration not stated)	x	x	-2	-11	-1	x	0.7
Cc1cccnc1NC(=O)CN1C(=O)c2ccccc2S1(=O)=O	8	-2	6	-19	5	u	1.6
COC(=O)C1=C(C)NC(=O)/C1=C\c1cc(C)n(-c2cc(C)cc(C)c2)c1C	x	x	-6	-12	x	2717	x
C=CCn1c(O)c(/C=C2/C=c3ccccc3=N2)c(=O)[nH]c1=S	-4	-9	-5	-37	-1	3416	4.5
COc1ccc(/C=C/C(=O)N(C)C2CCCCC2)cc1Br	4	16	-2	-21	9	4695	4.9
CCN(CC)C(=O)c1ccccc1NC(=O)c1cccc(S(=O)(=O)N(CC)CC)c1	9	-1	1	-4	2	2010	1.2
C=CCNC(=O)C12CCC(C)(C(=O)[C@H]1Br)C2(C)C (some centres not stated)	9	8	-3	-18	6	5972	3.1
O=C(c1ccc(Cl)nc1)N1CCN(C/C=C/c2ccccc2)CC1	8	3	0	2	-8	3244	-7.2
COc1ccc(NC(=O)CC2C(=O)N(C)C(=S)N2Cc2ccco2)cc1 (configuration not stated)	x	x	8	-12	0	2468	3.0
O=c1[nH]cc(N=Cc2cc(Cl)cc(Cl)c2O)c(=O)[nH]1	3	2	-6	-8	2	4141	8.9
O=C(Nc1nnc(C2=COCCO2)o1)c1cccc(Br)c1	3	0	1	-8	99*	4659	92*
O=C(CCS(=O)(=O)c1ccccc1)Nc1ccc2c(c1)C(=O)NC2=O	x	x	33	-33	x	4044	x
CN(C)S(=O)(=O)c1ccc(NC(=O)c2cc(-c3cccs3)nc3ccccc23)cc1	-8	-1	1	-6	6	11040	2.8
O=C(Cc1ccccc1[N+](=O)[O-])NCCc1ccc(F)cc1	0	2	1	-12	7	4037	7.3
CSCCC(NS(=O)(=O)c1ccc2c(c1)Cc1cc(S(=O)(=O)NC(CCSC)C(=O)O)ccc1-2)C(=O)O (configuration not stated)	5	0	1	-7	1	3822	1.5
CC[C@H](C)[C@@H]1NC(=O)c2cc([N+](=O)[O-])cc(F)c2NCCCC[C@@H](C(N)=O)NC(=O)[C@H](CCCCN)NC1=O	x	x	-10	-17	x	4933	x
CCOc1ccc(-n2cc(C(=O)c3cc(Cl)ccc3O)cc(C#N)c2=O)cc1	-8	5	6	-8	-5	2241	2.2
C/C(=C\c1ccccc1)C(=O)Nc1nccs1	-3	6	7	-89	8	2093	-0.1
CCCOc1ccc(CCc2n[nH]c(=S)n2Cc2ccccc2)cc1	4	9	-20	-10	15	9073	3.6
C=C(C)Cn1c(SCC(=O)O)nnc1-c1ccc(C(C)(C)C)cc1	7	0	6	-22	-2	3043	3.2
CC(CN1CCOCC1)OC(=O)c1ccccc1Br (configuration not stated)	7	12	-7	-16	-1	2955	5.4
COc1cccc(C(=O)OCC(=O)NCCCc2ccccc2)c1	-5	-1	1	-14	0	3787	-0.3
Nc1nc(SCC(=O)N2CCCCCC2)[nH]c(=O)c1NC(=O)c1ccco1	5	12	x	-3	2	5806	-5.7
COC(=O)c1cccc(NC(=S)Nc2cccc(Cl)c2C)c1	8	9	-1	-17	-5	2039	0.1
CCOC(=O)c1sc(NC(=O)C(C)Sc2nc(N)cc(=O)[nH]2)nc1C (configuration not stated)	5	-4	5	-1	-3	2019	3.7
CN(C)S(=O)(=O)c1cc(NC(=O)COC(=O)Cc2ccc(Cl)cc2Cl)ccc1Cl	9	5	-9	-17	-12	2184	-0.7
Cc1c(O)ccc2c(CN(C)Cc3ccccc3)cc(=O)oc12	-17	0	3	-23	-6	4770	0.1
Cc1nn(-c2ccc(F)cc2F)c(=O)c2noc(C)c12	14	8	-5	-13	1	x	5.3
CCOC(=O)c1cnn(-c2ccccc2)c1NC(=O)CN1CCOCC1	-5	-6	-13	74*	10	x	4.1
N#C/C(=C\c1ccc([N+](=O)[O-])cc1)c1ccccn1	13	9	9	-55	-2	4380	14
CC(=O)Nc1ccc(NC(=O)CSc2nc3nc(-c4cccs4)cc(C(F)(F)F)c3c(=O)[nH]2)cc1	1	-2	5	6	9	4158	1.6
Cn1c(C(O)c2ccccc2F)nc(Cl)c1Cl (configuration not stated)	-4	2	-3	-14	-9	22133*	5.6
Fc1ccc(-n2c(=S)[nH]c3cccnc32)cc1	5	6	0	-7	6	3306	-0.4
COc1cc2cc(C(c3nnnn3C3CCCC3)N3CCCCC3)c(=O)[nH]c2cc1OC (configuration not stated)	11	6	0	-10	-5	19432*	4.1
COc1ccc(/C=C/C(=O)Nc2cc(S(=O)(=O)N3CCOCC3)ccc2OC)cc1	7	8	x	11	8	3622	4.5
O=C1CCCN1CCCNC(=S)Nc1ccc(F)c(Cl)c1	2	3	-6	-42	-13	4879	-5.8
Cc1cc(=O)[nH]c(SCCc2ccccc2)n1	x	x	0	-14	x	3199	x
COc1ccc(-c2nc(C(F)(F)F)c(OC)o2)cc1OC	-8	3	9	-5	-1	2603	0.3

A few values from the entries so far.
`Cc1c(O)ccc2c(CN(C)Cc3ccccc3)cc(=O)oc12` @ ugtP null kill: -6
`Fc1ccc(-n2c(=S)[nH]c3cccnc32)cc1` @ Bead autofluor: 3306
`Cc1nn(-c2ccc(F)cc2F)c(=O)c2noc(C)c12` @ Mtb hypoxia rep growth: 8

The list continues.
SMILES	Mtb hypoxia rep	Mtb hypoxia rep growth	BJeLR viability	PrP UTR inh	ugtP null kill	Bead autofluor	Sa RN4220 lethal
O=C(O)c1nc(-c2ccccc2)n(-c2ccccc2)n1	1	1	-19	1	3	2359	3.0
Cc1cc(-c2nn(-c3ccccc3F)cc2CN2CCCC(C(N)=O)C2)c(C)s1 (configuration not stated)	-3	16	-1	-20	6	5453	3.9
O=C(NCCN1C(=O)C2C3C=CC(C3)C2C1=O)N1CCOCC1 (configuration not stated)	x	x	6	-9	-2	5998	0.2
O=C(Nc1cccc(S(=O)(=O)NC2=NCCCCC2)c1)c1cc(-c2ccco2)nc2ccccc12	-20	-6	-2	-13	12	3966	4.5
CCCc1c(C)nn(-c2ncccc2[N+](=O)[O-])c1C	1	-7	-11	-7	5	3494	2.6
O=C(COc1ccc(-c2ccccc2)cc1)N1CCCC1	-4	10	0	-41	7	2603	3.2
COc1ccc(/C=N/N2CCN(c3ccccc3)CC2)cc1Br	x	x	2	-16	x	3677	x
COC(=O)Nc1nnc(SCc2ccc(C)cc2)s1	x	x	8	-1	14	2869	0.2
CCCc1nc2ccccc2c(=O)n1-c1ccccc1OC	4	-1	-7	-19	6	2835	8.1
Nc1nc2c(s1)C(=O)CCC2	x	x	-11	-15	-1	5579	-0.2
NC(=O)c1c(NC(=O)CSc2nnc(-c3ccccc3)n2CC2CCCO2)sc2c1CCC2 (configuration not stated)	7	-1	17	-36	2	10397	1.7
COc1ccc(CC(=O)NCC(=O)N/N=C/c2ccc(C)o2)cc1	x	x	-11	-15	x	2380	x

5 compounds already listed, arranged by SMILES length, lowest first.
SMILES	Mtb hypoxia rep	Mtb hypoxia rep growth	BJeLR viability	PrP UTR inh	ugtP null kill	Bead autofluor	Sa RN4220 lethal
Nc1nc2c(s1)C(=O)CCC2	x	x	-11	-15	-1	5579	-0.2
CCCc1nc2ccccc2c(=O)n1-c1ccccc1OC	4	-1	-7	-19	6	2835	8.1
CCCc1c(C)nn(-c2ncccc2[N+](=O)[O-])c1C	1	-7	-11	-7	5	3494	2.6
COc1ccc(CC(=O)NCC(=O)N/N=C/c2ccc(C)o2)cc1	x	x	-11	-15	x	2380	x
O=C(Nc1cccc(S(=O)(=O)NC2=NCCCCC2)c1)c1cc(-c2ccco2)nc2ccccc12	-20	-6	-2	-13	12	3966	4.5

The list continues.
SMILES	Mtb hypoxia rep	Mtb hypoxia rep growth	BJeLR viability	PrP UTR inh	ugtP null kill	Bead autofluor	Sa RN4220 lethal
CC1CCN(c2c(NCc3ccc(C(=O)N(C)C4CCCCC4)cc3)c(=O)c2=O)CC1	-2	-8	-8	-27	10	4410	1.5
CCOC(=O)c1c(NC(=O)CSc2nnc3c(n2)[nH]c2ccccc23)sc2c1CCN(C)C2	9	10	6	-29	9	3979	1.2
C[C@]12c3[nH]c4ccc(Cl)cc4c3CCN1C(=O)[C@@H](CC(=O)NCCc1ccccn1)C[C@@H]2C(=O)N1CCCCC1	-5	7	x	-22	-6	3681	7.5
O=C(/C=C/c1ccc2ccccc2n1)N1CCN(S(=O)(=O)c2ccccc2F)CC1	-2	0	5	2	6	5397	0.1
Cc1ccc(OCC(=O)Nc2cccc(-c3nnc(-c4ccccc4)o3)c2)c(C)c1	0	17	-5	-5	-12	21189*	9.5

Full records from above. Screens in order: Mtb hypoxia rep | Mtb hypoxia rep growth | BJeLR viability | PrP UTR inh | ugtP null kill | Bead autofluor | Sa RN4220 lethal
Shown for `CCOC(=O)c1c(NC(=O)CSc2nnc3c(n2)[nH]c2ccccc23)sc2c1CCN(C)C2` : 9 | 10 | 6 | -29 | 9 | 3979 | 1.2
Shown for `C[C@]12c3[nH]c4ccc(Cl)cc4c3CCN1C(=O)[C@@H](CC(=O)NCCc1ccccn1)C[C@@H]2C(=O)N1CCCCC1` : -5 | 7 | x | -22 | -6 | 3681 | 7.5
